From PubChem
Calb FLC = affects C. albicans growth with fluconazole; 0.57% of 300,000 active; C. albicans CaCi-2 (fluconazole-resistant clinical isolate) + fluconazole, Alamar Blue growth, 48 h; AID 1979; growth inhibition, % (test concentration not listed);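 active = most replicates above 75%; inconclusive = exactly half above 75%; inactive = most below 75%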;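 note: all wells also contain fluconazole at 8 µg/ml as a sub-toxic cotreatment; 0% = median of DMSO wells and 100% = median of geldanamycin control wells; wells of about 8 µL received 7.5 nL stock; the first replicate is given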
T cruzi inh = blocks replication of Trypanosoma cruzi. T. cruzi beta-gal in NIH3T3, luminescence, 90 h. inhibition, % (no concentration beside the values). 1.4% of 300,000 active. AID 1885;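 active = mean inhibition across valid replicates above about 55%, limit read from the data; inconclusive = mean below that limit but half or more replicates reach it; inactive = mean below it, under half of replicates reach it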;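 note: signal also drops with host cell toxicity which is not excluded here; 0% = plate median of DMSO wells and 100% = zero luminescence signal; higher percent means less beta-gal luminescence so fewer parasites; stock transfer was 50 nL into about 50 µL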
Bfl-1 A1 inh = inhibitors of the anti-apoptotic protein A1, read as caspase activation | MEF A1-2A-BIM cells, Caspase-Glo 3/7 luminescence, 3 h; percent of clofoctol response, vehicle zero | caspase activation, % (concentration not given with the values) | 0.066% of 330,000 active;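 active = over half of replicate activation scores above 10%, or exactly half above 10 with the replicate mean above 10; inconclusive = replicate mean below 10 yet half the replicates above 10; inactive = over half of replicates below 10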;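 note: wells of about 30 µL received 50 nL stock; many hits fall short of the cut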
Beta cell apopt = blocks beta cell apoptosis; INS-1E cytokine-induced death, ATP luminescence, 48 h; percent of positive-control rescue, neutral wells zero; protection from apoptosis, % (concentration not given with the values); 0.8% of 300,000 active; AID 435005;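 active = all replicates at 75% or more, or half of them and the mean; inconclusive = half reach 75% but not the mean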;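 note: 0% = cytokine-treated negative control wells and 100% = positive control rescue; higher means more ATP so stronger rescue from cytokine killing; wells of about 40 µL received 100 nL stock; the first replicate is given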
LANA-H2B inh = blocks KSHV LANA binding to histone H2A/H2B. Q9QR71. cell-free LANA-H2A/H2B peptide, fluorescence polarization. AID 2629. 0.6% of 320,000 active. inhibition, % (test concentration not listed); in the data active = inhibition mostly above about 10%, no sharp cut-off; inactive = mostly below about 6.7%;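 note: stock transfer was 7.5 nL into about 10 µL; 0% = median of vehicle wells and 100% = median of positive control wells; one replicate is shown; the record names a cut of 25% in any replicate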
RanGTP-Imp inh = inhibitors of RanGTP-importin-beta interaction, primary screen, biochemical, FRET, CFP-Ran, YFP-importin-beta, homogeneous; cell-free CFP-Ran/YFP-importin-beta FRET ratio; inhibition, % (test concentration not listed); 1.1% of 300,000 active;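 active = most replicates above 15%; inconclusive = exactly half above 15%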;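 note: 0% = DMSO wells and 100% = Ran loaded with GDP instead of GTP; wells of about 40 µL received 100 nL stock; the first replicate is given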
MLL AF4-AF9 inh = MLL-AF4/AF9 protein interaction inhibition. P42568. inhibition, % at 10 µM. AlphaScreen, biotin-AF4 peptide binding to FLAG-AF9. 0.47% of 350,000 active. AID 651704;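 active = every replicate reaching a set inhibition limit, whatever the replicate mean, cut at about 25% in these data; inconclusive = mean inhibition reaches that limit but some replicates miss it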;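 note: 0% = plate neutral control median and 100% = total signal loss; the record names both 10 and 1 µM as test concentration; the first replicate is given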
Target sequence (P42568 whole entry, looked up): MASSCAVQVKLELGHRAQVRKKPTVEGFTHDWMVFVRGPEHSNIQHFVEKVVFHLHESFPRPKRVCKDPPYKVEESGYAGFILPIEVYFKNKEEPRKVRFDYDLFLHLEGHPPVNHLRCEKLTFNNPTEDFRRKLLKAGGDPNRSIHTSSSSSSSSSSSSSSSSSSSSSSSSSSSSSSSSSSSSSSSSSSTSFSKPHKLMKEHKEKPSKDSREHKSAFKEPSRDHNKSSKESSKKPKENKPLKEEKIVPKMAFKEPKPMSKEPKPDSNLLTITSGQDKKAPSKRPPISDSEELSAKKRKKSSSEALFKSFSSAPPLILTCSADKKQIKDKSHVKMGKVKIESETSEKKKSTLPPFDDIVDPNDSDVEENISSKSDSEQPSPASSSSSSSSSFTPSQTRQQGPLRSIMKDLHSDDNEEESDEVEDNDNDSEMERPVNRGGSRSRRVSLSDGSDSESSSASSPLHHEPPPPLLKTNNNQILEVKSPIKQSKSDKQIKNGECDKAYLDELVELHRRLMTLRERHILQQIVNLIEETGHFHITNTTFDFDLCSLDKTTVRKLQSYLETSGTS
Vif TR-FRET = inhibitors of Vif binding to APOBEC3G peptide, primary screen, biochemical, TR-FRET, GST-Vif 1-94, biotin-A3G peptide, dose response retest (AID 1117319). inhibition, %; hits with a dose series show IC50 in µM. 0.57% of 260,000 active. TR-FRET GST-Vif / biotin-A3G peptide binding; higher % means a stronger effect; test concentration not given here; strong numbers were not always called active;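 active = above the screen mean plus three standard deviations and confirmed in dose response; inconclusive = results disagree or hit not tested in dose response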;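 note: Vif residues 1-94 fused to GST binding biotinylated APOBEC3G peptide 110-148; 0% = full assay without inhibitor and 100% = GST in place of GST-Vif; retest series ran down from 100 µM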
The depositor's hits bear a star; ? = inconclusive; . = not tested or not shown.

1	Cc1cc(C)c(S(=O)(=O)N2CCN(C(=O)N3CCCCC3)CC2)c(C)c1
2	Clc1ccc(CSc2snnc2-c2ccccc2)cc1
3	C=CCc1ccc(OCC(O)CN2CCCCC2C)c(OC)c1 (stereo not given)
4	CN(C)/C=C\C(=C/C(=O)C(F)(F)F)Nc1ccccc1Oc1ccccc1
5	Cn1cc([N+](=O)[O-])c(C(=O)Nc2ccc(C(=O)N3CCCCC3)cc2)n1
6	COc1ccc(/C=N/NC(=O)c2cc3c(OC)ccc(OC)c3[nH]2)cc1O
7	CCOc1cc(C2NC(=O)NC(O)(C(F)(F)F)C2C(=O)c2ccccc2)ccc1OC (stereo not given)
8	COc1ccc(N2C(=O)/C(=C/c3ccc([N+](=O)[O-])cc3)N=C2C)cc1
assay / compound	1	2	3	4	5	6	7	8
Calb FLC	15	3	2	4	6	4	-5	29
T cruzi inh	19	12	5	10	-32	0	-24	1
Bfl-1 A1 inh	0.5	.	-1.2	0.3	-2.3	1.5	-0.3	-0.4
Beta cell apopt	3	1	-3	-7	-5	13	4	0
LANA-H2B inh	1.4	-1.2	-0.9	1.4	2.4	7.0	0.7	-1.1
RanGTP-Imp inh	-0.7	-2.0	1.1	4.1	-3.2	0.8	?	?
MLL AF4-AF9 inh	-0.1	.	.	1.5	1.6	-8.9	.	-0.6
Vif TR-FRET	.	13%	?	-5%	17%	0%	67%	-4%

9	CCOC(=O)C1=C(c2ccccc2)ON(C)C1c1ccccc1 (stereo not given)
10	O=C(c1ccccc1)c1ncc[nH]1
11	CCn1cc(C(=O)NCCCN(C)C)c(=O)c2cc(F)c(N3CCN(C)CC3)cc21
12	O=C(Nc1cccc(OCC(=O)N2CCOCC2)c1)c1cccc([N+](=O)[O-])c1
13	O=S1(=O)N=C(N/N=C/c2ccc(Br)o2)c2ccccc21
14	CSc1ccc(S(=O)(=O)NCC(=O)OCC(=O)NCc2cccs2)cc1[N+](=O)[O-]
15	CCOc1ccc(N2C(=O)/C(=C\c3ccc(OC)c(O)c3)S(=O)(=O)C2c2cccc([N+](=O)[O-])c2)cc1 (stereo not given)
16	C=CCn1c(COc2ccccc2F)nnc1SCCN1C(=O)c2ccccc2C1=O
assay / compound	9	10	11	12	13	14	15	16
Calb FLC	-5	-7	-7	10	-22	-4	35	-13
T cruzi inh	0	-9	-2	-2	-8	-5	.	-4
Bfl-1 A1 inh	0.2	2.1	0.8	0.2	1.2	0.4	0.1	0.6
Beta cell apopt	-8	2	0	4	-6	1	-2	-4
LANA-H2B inh	-2.4	3.1	0.1	-2.9	-1.5	-5.2	-1.3	.
RanGTP-Imp inh	2.7	-4.3	0.0	-4.8	2.3	-3.4	-2.1	?
MLL AF4-AF9 inh	2.8	-1.3	.	-3.1	0.6	0.4	-5.3	.
Vif TR-FRET	-4%	2%	-3%	.	9%	5%	-4%	-2%

An excerpt from above in order of formula weight, falling.
14	CSc1ccc(S(=O)(=O)NCC(=O)OCC(=O)NCc2cccs2)cc1[N+](=O)[O-]
16	C=CCn1c(COc2ccccc2F)nnc1SCCN1C(=O)c2ccccc2C1=O
9	CCOC(=O)C1=C(c2ccccc2)ON(C)C1c1ccccc1 (stereo not given)
10	O=C(c1ccccc1)c1ncc[nH]1
assay / compound	14	16	9	10
Calb FLC	-4	-13	-5	-7
T cruzi inh	-5	-4	0	-9
Bfl-1 A1 inh	0.4	0.6	0.2	2.1
Beta cell apopt	1	-4	-8	2
LANA-H2B inh	-5.2	.	-2.4	3.1
RanGTP-Imp inh	-3.4	?	2.7	-4.3
MLL AF4-AF9 inh	0.4	.	2.8	-1.3
Vif TR-FRET	5%	-2%	-4%	2%

Later entries.
17	COc1ccc(C2/C(=C(\O)c3ccc4c(c3)OCCO4)C(=O)C(=O)N2Cc2cccnc2)cc1OC (stereo not given)
18	FC(F)(F)c1ccc(NCCc2ccccc2)nc1
19	Cc1ccc(/C=N/n2cc(-c3ccccc3)[nH]c2=S)s1
20	CC(C)CNC(=S)N(Cc1ccco1)Cc1cc2cc3c(cc2[nH]c1=O)OCCO3
21	CC(C)(C)N(Cc1ccccc1)C(=O)COC(=O)CN1C(=O)NC2(CCCC2)C1=O
22	CC12CCC(C/C1=N/O)C2(C)C (stereo not given)
23	CCOc1ccc(NC(=O)CCC(=O)n2nc(C)cc2C)cc1
24	COc1ccc(OC)c(CN2CCN(C(=O)c3cc(S(=O)(=O)Nc4ccccc4OC)ccc3C)CC2)c1
assay / compound	17	18	19	20	21	22	23	24
Calb FLC	-8	-7	14	-23	-4	0	-3	-12
T cruzi inh	-10	-2	31	-33	-3	-15	-8	29
Bfl-1 A1 inh	-0.6	-0.1	0.2	?	0.1	0.2	0.1	0.4
Beta cell apopt	-4	-2	4	-20	.	-1	2	17
LANA-H2B inh	2.1	-0.2	6.3	3.3	-2.6	5.7	1.7	-0.3
RanGTP-Imp inh	-1.7	1.7	-0.9	1.8	-0.4	4.4	-0.6	3.5
MLL AF4-AF9 inh	-0.8	-2.3	1.4	.	0.3	-0.4	.	3.8
Vif TR-FRET	-3%	.	-4%	.	10%	-4%	9%	-2%

25	CC(C)(C)NC(=O)CN(C(=O)CN1C(=O)C(=O)c2ccccc21)C(C)(C)C
26	COc1cc(CSc2nc(-c3ccccc3)cc(=O)[nH]2)cc(OC)c1
27	COC(=O)c1ccc(NC(=O)CN(Cc2ccc(Cl)cc2)S(C)(=O)=O)cc1
28	O=C(O)CC(CC(=O)Nc1ccc2ccccc2n1)c1ccccc1 (stereo not given)
29	COc1ccc(C(=S)N2CCN(C)CC2)cc1
30	C=CCC[C@H](Cc1ccc(F)cc1)C(=O)OC[C@@H](NC(=O)[C@@H](CC=C)CC(=O)N[C@H](CO)Cc1ccccc1)C(C)(C)C
31	O=C(COC(=O)C1CCN(c2ccc(C(F)(F)F)cn2)CC1)c1ccccc1
32	C/C(=N\Nc1nc(C)cc(C)n1)c1ccc(N2CCOCC2)cc1
assay / compound	25	26	27	28	29	30	31	32
Calb FLC	9	2	-11	5	-3	.	-4	23
T cruzi inh	-7	-10	-2	-7	-1	.	-4	-9
Bfl-1 A1 inh	1.0	-0.2	1.5	0.6	0.2	0.9	0.5	-0.3
Beta cell apopt	-4	-1	-2	.	-2	5	-5	44
LANA-H2B inh	1.8	12	-2.6	6.6	5.5	1.1	0.9	-2.7
RanGTP-Imp inh	2.6	-7.9	2.7	-2.9	3.4	.	6.1	-1.7
MLL AF4-AF9 inh	1.0	.	.	-2.8	.	0.9	-6.3	-1.3
Vif TR-FRET	-1%	22%	-2%	-18%	-3%	.	-2%	26%

33	CC(=O)Nc1nc2cc([N+](=O)[O-])ccc2s1
34	O=C(NC(=S)Nc1ccccn1)c1ccco1
35	CC(C)(C)CC(C)(C)NC(=O)/C=C/C(=O)O
36	N#Cc1c(-c2ccc(Cl)cc2)nc2n(c1=O)CCCS2
37	O=C(CSc1nc2ccccc2c(=O)n1-c1ccccc1)NCc1ccc2c(c1)OCO2
38	CC(C)CNC(=O)Cn1c(=O)c2c(ncn2CC(C)C)n(Cc2ccccc2)c1=O
39	COc1ccc(OC)c(NC2=NC3(CCCCC3)N=C(N)N2)c1
40	COc1cc(OC)c(OC)cc1CN1CCN(S(=O)(=O)c2ccc(F)cc2)CC1
assay / compound	33	34	35	36	37	38	39	40
Calb FLC	.	?	4	-24	-4	-1	12	-3
T cruzi inh	.	-6	-4	-5	9	10	6	12
Bfl-1 A1 inh	0.0	-6.0	2.3	0.3	-0.3	0.0	-0.2	-0.2
Beta cell apopt	-6	4	-8	4	-5	-3	-1	3
LANA-H2B inh	0.3	-2.8	-5.0	-5.4	-0.5	-8.6	6.1	0.3
RanGTP-Imp inh	.	-1.4	1.8	2.5	1.4	-6.4	0.6	?
MLL AF4-AF9 inh	-3.8	.	-0.3	.	.	-2.6	.	.
Vif TR-FRET	.	2%	.	-9%	-2%	-7%	2%	-5%

41	O=C(NC1CCCCC1)C(c1ccc2ncccc2c1)N(Cc1ccccc1)C(=O)c1ccc2c(c1)OCCO2 (stereo not given)
42	Clc1ccccc1-c1nn2c(COc3ccccc3)nnc2s1
43	O=C(CN1CCCc2ccccc21)Nc1ccccc1[N+](=O)[O-]
44	CN(c1ccc(OCC(=O)Nc2nc(-c3ccccc3)cs2)cc1)S(=O)(=O)c1ccc(F)cc1
45	COc1ccc(N2CCN(C(c3cccs3)C(C)NC(=O)c3ccc4c(c3)OCO4)CC2)cc1 (stereo not given)
46	CC(=O)N1N=C(c2cccc([N+](=O)[O-])c2)OC1(C)c1cccs1 (stereo not given)
47	CCCC/C=C/[C@H](c1ccccc1)[C@H](CO)Cc1cccnc1
48	Cc1ccc(S(=O)(=O)N(C)C)cc1NS(=O)(=O)c1ccc(Cl)s1
assay / compound	41	42	43	44	45	46	47	48
Calb FLC	74	-2	3	27	-28	-1	-5	6
T cruzi inh	9	.	1	55*	6	-1	15	-9
Bfl-1 A1 inh	-0.6	1.5	-0.2	-1.1	1.0	1.4	1.1	-1.0
Beta cell apopt	.	-5	-3	-6	8	5	-5	8
LANA-H2B inh	-2.7	-5.4	1.5	-2.4	1.3	-1.8	-0.6	-2.5
RanGTP-Imp inh	4.1	4.6	-4.1	1.8	-4.3	1.4	-2.8	0.2
MLL AF4-AF9 inh	.	.	-1.5	.	6.3	7.6	.	1.0
Vif TR-FRET	15%	-4%	3%	.	-1%	-5%	.	-6%

49	O=C(/C(C=Nc1ccc(F)cc1)=C(/O)c1ccco1)C(F)(F)F
50	CCN1CCN(c2ncnc3c2nnn3Cc2ccccc2)CC1
51	Cc1ccc(-c2csc(NC(=O)c3ccc([N+](=O)[O-])o3)n2)cc1
52	Cc1cc(=O)oc2cc(OCc3ccc(C(=O)OCC(=O)NC4CCS(=O)(=O)C4)cc3)ccc12 (stereo not given)
53	Cc1ccc(C2=NNC(=O)C(P(=O)(c3ccccc3)c3ccccc3)C2)cc1 (stereo not given)
54	CCc1cccc(N=c2c([N+](=O)[O-])nn(-c3ccc4c(c3)OCCO4)n2O)c1
55	CCSc1ncc(/C=N/Nc2ccc([N+](=O)[O-])cc2)n1C
56	CCOc1ccc(CCNC(=O)C2CC(=O)N(c3ccccc3OCC)C2)cc1OCC (stereo not given)
assay / compound	49	50	51	52	53	54	55	56
Calb FLC	-5	-2	-9	8	41	3	-1	-6
T cruzi inh	15	6	70*	-1	-1	70*	4	5
Bfl-1 A1 inh	-7.4	0.4	-0.1	-2.0	0.6	0.2	-1.7	0.4
Beta cell apopt	-6	-1	46	-3	2	1	.	-7
LANA-H2B inh	-11	-2.0	-3.3	2.9	-1.1	1.7	3.5	6.3
RanGTP-Imp inh	-2.6	-0.9	-2.3	-4.3	-3.4	-2.7	-27	-1.7
MLL AF4-AF9 inh	.	.	1.5	-84	-9.3	3.9	.	1.9
Vif TR-FRET	.	-4%	.	.	-7%	.	2%	0%
